NPYLR7 agonist = agonists of mosquito NPYLR7 receptor, primary screen, cell-based, Aedes aegypti, calcium fluorescence, mosquito biting behavior; Aedes aegypti neuropeptide Y-like receptor 7 (NPYLR7); HEK293T NPYLR7/Galpha15, GCaMP6s calcium fluorescence; activation, % at 10 µM; 270,000 compounds, 0.15% hits; in the data active = activation above about 40%;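 also: 0% = vehicle and 100% = reference agonist at the receptor; some compounds past the cut are filed as inactive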
NPYLR7 agonist max-min = further read-out of NPYLR7 agonist, marked with its call; activation, %; measured here: Max-Min RFU normalised activation; some inactives read as strong as hits;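 span of the calcium signal over five minutes; 0% = vehicle and 100% = native peptide agonist; compound fluorescence can raise it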
* = called active by the depositor; & = joins results of further samples.

SMILES	NPYLR7 agonist	NPYLR7 agonist max-min
Cc1ccc(-c2nc(C(N)=O)c3[nH]c(=O)n(-c4ccc5c(c4)OCO5)c3n2)cc1	-6.6	-10.4
COc1ccc(CCOc2nc(-c3ccco3)n(-c3cccc(NCC(C)O)c3)n2)cc1 (stereo not drawn)	15.9	20.0
CCOC(=O)C1(Cc2ccc(OC)cc2)CCN(C(=O)C2CCCC2)CC1	7.1	9.4
Cc1c(C(=O)NCc2ccccc2C(F)(F)F)sc(=O)n1CC(=O)N1CCOCC1	-2.4	1.9
O=S(=O)(c1cc(Cl)cc(Cl)c1)N1CCN(Cc2ccco2)CC1	3.4	-0.5
COC(=O)c1ccc(CSc2ncnc3c2nnn3C)o1	0.0	3.5
COC(=O)c1cc2n(n1)CCCN(C(=O)c1cc3nc(C)cc(C)n3n1)C2	-3.4	7.4
CNc1nc(NCc2ccc(C)cc2C)c2sccc2n1	9.0	4.2
Cc1ccnc(NC(=O)CCc2c(C)nn(-c3nc(C)c(C)c(=O)[nH]3)c2C)c1	3.5	0.7
CCNC(=O)CN(CC)S(=O)(=O)c1cc(Cl)cc(Cl)c1	-0.4	-2.5
Cn1c(=O)c2c(nc(CN3CCN(Cc4ccccc4)CC3)n2Cc2ccccc2)n(C)c1=O	2.4	32.5
O=C(NCC1CCCN(CCCn2cccn2)C1)C1(c2ccc(Cl)cc2)CC1 (stereo not drawn)	3.2	5.9
O=S(=O)(c1cccc(Cl)c1Cl)N1CCc2sccc2C1	10.1	11.6
COc1ccc(CN2C(=O)N(CC(C)C)C3(CCN(Cc4cc5ccccc5o4)CC3)C2=O)cc1	12.1	0.1
CC(C)Oc1ccc(S(=O)(=O)N2CCOCC2)cc1NC(=O)Cn1c(=O)n(C)c2ccccc21	38.3	28.1
COc1ccc(N2CCN(C(=O)c3cc(-c4ccc(F)cc4)nc4cc(-c5ccccc5)nn34)CC2)cc1	-6.8&-4.9	-5.6&13.0
COC(=O)[C@@H](NC1CCN(c2ccc(NC(=O)C3CCCC3)cc2)CC1)c1ccccc1	16.4	3.4
COc1ccc(-c2cc(C(=O)N3CCN(C/C=C/c4ccccc4)CC3)n(-c3ccccc3Cl)n2)c(OC)c1	-0.4	0.8
CCCCn1c(N)c(N(CCC)C(=O)C=Cc2ccco2)c(=O)[nH]c1=O	2.5	5.7
Cc1nc2n(n1)C(=O)C(C(c1ccc(Cl)c(Cl)c1)N1CC(C)OC(C)C1)S2 (stereo not drawn)	1.5	-0.9
COCCN(CC(=O)Nc1cc(C(C)(C)C)nn1-c1ccc(C)cc1C)C(=O)c1ccc2c(c1)OCO2	4.2	5.1
COc1ccc(C=C2N=C(c3ccccc3F)OC2=O)c(OC)c1	6.6	15.7
CCN1C(=O)c2cc(NS(C)(=O)=O)ccc2Oc2ccccc21	6.7	2.3
OC(c1ccc(F)cc1)c1ncc(-c2ccc3ccccc3c2)[nH]1 (stereo not drawn)	5.6	5.3
CCc1nc2ccccc2n1CC(=O)NC1CCCCC1	-6.4	-8.0
COc1ccc(C(O)C(=O)N2CCC3(CC2)CN(C)CCN3C)cc1 (stereo not drawn)	8.0	5.6
COc1ccccc1CCNC(=O)CN1CN(c2ccccc2)C2(CCN(S(=O)(=O)c3ccc(Br)cc3)CC2)C1=O	27.3	32.8
CCOC(=O)N1CCN(C(=O)c2ccc(N3CCC(NCc4cccc(F)c4F)CC3)cc2)CC1	-2.5	-5.2
O=C(O)c1c[nH]c2ccc(S(=O)(=O)N3CCC(c4ccccc4)C3)cc2c1=O (stereo not drawn)	-5.9	-14.3
Cc1cc(C)c(C(=O)NCCCc2nc3ccccc3n2C)c(=O)[nH]1	1.8	-1.5
O=C(CSc1nc2c([nH]c3ccccc32)c(=O)n1-c1ccc([N+](=O)[O-])cc1)N1CCCCCC1	0.1	28.1
OC(Cc1ccccc1)C1CCN(Cc2cnn3cccnc23)CC1 (stereo not drawn)	8.8	7.6
Nc1nccc(N2CC[C@@H](c3ccc4c(c3)OCO4)[C@H](O)C2)n1	0.1	1.9
Cc1cc(C)cc(OCc2nc(CN(C(=O)c3ccccc3F)C(C)C)cs2)c1	21.0	16.9
Cc1ccccc1C(=O)N1C(C(=O)NCc2ccco2)COC12CCN(C(=O)Cc1ccccc1)CC2 (stereo not drawn)	6.7	19.3
COc1cccc(O)c1CN1CCN(CCC(C)C)C(CCO)C1 (stereo not drawn)	-1.7	-3.5
COC(=O)c1ccc(Cn2cc(C(=O)NCc3ccc(OC)c(OC)c3)sc2=O)o1	1.6	-0.9
c1ccc(-c2nnc(NN=C3CCCC3)c3ccccc23)cc1	-0.4	4.1
Cc1ccc(S(=O)(=O)CCCC(=O)Nc2ncnc3sccc23)cc1	2.0	2.7
COc1ccc2[nH]c(CNC(=O)CC(=O)Nc3cc(C)ccc3C)cc2c1	-6.4	-4.8

Arranged by formula weight (descending): some entries from above
SMILES	NPYLR7 agonist	NPYLR7 agonist max-min
COc1ccc(-c2cc(C(=O)N3CCN(C/C=C/c4ccccc4)CC3)n(-c3ccccc3Cl)n2)c(OC)c1	-0.4	0.8
COc1ccc(N2CCN(C(=O)c3cc(-c4ccc(F)cc4)nc4cc(-c5ccccc5)nn34)CC2)cc1	-6.8&-4.9	-5.6&13.0
Cc1ccccc1C(=O)N1C(C(=O)NCc2ccco2)COC12CCN(C(=O)Cc1ccccc1)CC2 (stereo not drawn)	6.7	19.3
CCOC(=O)N1CCN(C(=O)c2ccc(N3CCC(NCc4cccc(F)c4F)CC3)cc2)CC1	-2.5	-5.2
O=C(CSc1nc2c([nH]c3ccccc32)c(=O)n1-c1ccc([N+](=O)[O-])cc1)N1CCCCCC1	0.1	28.1
COC(=O)[C@@H](NC1CCN(c2ccc(NC(=O)C3CCCC3)cc2)CC1)c1ccccc1	16.4	3.4
COC(=O)c1ccc(Cn2cc(C(=O)NCc3ccc(OC)c(OC)c3)sc2=O)o1	1.6	-0.9
Cc1nc2n(n1)C(=O)C(C(c1ccc(Cl)c(Cl)c1)N1CC(C)OC(C)C1)S2 (stereo not drawn)	1.5	-0.9
Cc1cc(C)cc(OCc2nc(CN(C(=O)c3ccccc3F)C(C)C)cs2)c1	21.0	16.9
O=C(O)c1c[nH]c2ccc(S(=O)(=O)N3CCC(c4ccccc4)C3)cc2c1=O (stereo not drawn)	-5.9	-14.3
Cc1ccc(S(=O)(=O)CCCC(=O)Nc2ncnc3sccc23)cc1	2.0	2.7
COc1ccc2[nH]c(CNC(=O)CC(=O)Nc3cc(C)ccc3C)cc2c1	-6.4	-4.8
CCCCn1c(N)c(N(CCC)C(=O)C=Cc2ccco2)c(=O)[nH]c1=O	2.5	5.7
COc1ccc(C(O)C(=O)N2CCC3(CC2)CN(C)CCN3C)cc1 (stereo not drawn)	8.0	5.6
Cc1cc(C)c(C(=O)NCCCc2nc3ccccc3n2C)c(=O)[nH]1	1.8	-1.5
COc1cccc(O)c1CN1CCN(CCC(C)C)C(CCO)C1 (stereo not drawn)	-1.7	-3.5
CCN1C(=O)c2cc(NS(C)(=O)=O)ccc2Oc2ccccc21	6.7	2.3
COc1ccc(C=C2N=C(c3ccccc3F)OC2=O)c(OC)c1	6.6	15.7
OC(c1ccc(F)cc1)c1ncc(-c2ccc3ccccc3c2)[nH]1 (stereo not drawn)	5.6	5.3
Nc1nccc(N2CC[C@@H](c3ccc4c(c3)OCO4)[C@H](O)C2)n1	0.1	1.9
c1ccc(-c2nnc(NN=C3CCCC3)c3ccccc23)cc1	-0.4	4.1
CCc1nc2ccccc2n1CC(=O)NC1CCCCC1	-6.4	-8.0

Going on with the list:
SMILES	NPYLR7 agonist	NPYLR7 agonist max-min
CCOc1ccc(-c2ccc(SCC)nn2)cc1	0.9	0.1
O=C(c1ccccc1OC(F)(F)F)N1CCC(Cc2ccc(-n3cccc3)cc2)CC1	2.3	9.5
Cc1nc2ccc(N=Cc3cccc4ccccc34)cc2s1	-7.5	-7.7
CNC(=O)c1nnc2n1CCN(C(=O)c1cccc3c1OCCO3)C2	7.0	5.3
CCCC(C)CC(=O)C(C#N)c1nc2nccc(C)c2[nH]1 (stereo not drawn)	1.9	5.1
O=C1CCC(C(=O)N2CCC(Oc3ccc(Cl)cc3)CC2)CN1Cc1ccccn1 (stereo not drawn)	-0.3	-1.8
CCc1ccc2oc(-c3ccc(NC(=O)c4ccc(Cl)c([N+](=O)[O-])c4)cc3)nc2c1	-0.4	7.2
CCCCn1nc(C)c(/C=C/C(=O)NC2(C(=O)NC)CCCC2)c1Cl	-7.3	-9.2
Cc1ccccc1-c1ccc(-n2cncc2C(=O)NC(C)c2ccc(Br)cc2)cc1 (stereo not drawn)	-2.4	-13.2
CCOc1cc(C)c(C(C)C)cc1S(=O)(=O)n1cccn1	-0.6	14.0
O=[N+]([O-])C(CN1CCOCC1)C1=NCCC1 (stereo not drawn)	1.4	1.2
CCC(C)N(Cc1c(C)nn(-c2ccccc2)c1Oc1cccc(OC)c1)CC(O)CN1CCOCC1 (stereo not drawn)	5.7	7.5
COCCn1cc(C(=O)N2CCN(c3ccc(OC)cc3)CC2)c2nn(-c3ccccc3)c(=O)c-2c1	2.2	1.2
Cn1cc(S(=O)(=O)N(Cc2ccco2)c2cccc(F)c2)cc1C(N)=O	2.7	0.9
CC1(C)O[C@@H]2[C@@H](CO[C@@]3(COS(N)(=O)=O)OC(C)(C)O[C@@H]23)O1	-7.9&6.7	-16.9&-10.5
O=C(c1ccc2cccnc2c1O)N1CCCC(CCc2ccc(F)cc2)C1 (stereo not drawn)	10.5	6.2
C=CCc1c(C)nc2c(-c3ccccc3)cnn2c1N1CCN(CC)CC1	3.1	3.8
COc1ccc(C(=O)Nc2c3c(nn2-c2ccccc2C)CS(=O)C3)cc1OC (stereo not drawn)	0.8	-2.2
O=C(Cn1cnc2c(nnn2Cc2ccc(Cl)cc2)c1=O)N1CCCc2ccccc21	7.2	7.7
CC(=O)c1c(C)oc2ccc(N(C(=O)c3ccncc3)S(=O)(=O)c3c(C)cc(C)cc3C)cc12	3.1	2.5

Laid out differently: entries from further up
Cc1ccccc1-c1ccc(-n2cncc2C(=O)NC(C)c2ccc(Br)cc2)cc1 (stereo not drawn)
  NPYLR7 agonist = -2.4
  NPYLR7 agonist max-min = -13.2
COc1ccc(N2CCN(C(=O)c3cc(-c4ccc(F)cc4)nc4cc(-c5ccccc5)nn34)CC2)cc1
  NPYLR7 agonist = -6.8&-4.9
  NPYLR7 agonist max-min = -5.6&13.0
CCN1C(=O)c2cc(NS(C)(=O)=O)ccc2Oc2ccccc21
  NPYLR7 agonist = 6.7
  NPYLR7 agonist max-min = 2.3
CCOc1cc(C)c(C(C)C)cc1S(=O)(=O)n1cccn1
  NPYLR7 agonist = -0.6
  NPYLR7 agonist max-min = 14.0

More structures follow.
SMILES	NPYLR7 agonist	NPYLR7 agonist max-min
COCCN(Cc1ccc(OS(C)(=O)=O)cc1)C(=O)Nc1ccc(OC)cc1OC	-3.5	4.3
Cc1ccsc1C1c2c(n[nH]c2C)OC(=N)C1C#N (stereo not drawn)	5.1	0.4
CCOC(=O)c1ccccc1Nc1nnc(C(C)(C)C)c(=O)[nH]1	5.6	1.3
O=C(Oc1ccc2ccc(=O)oc2c1)N1CCOCC1	-1.6	-2.6
O=C(c1ccc(-c2ccc3c(c2)OCCO3)s1)N1CCC(Cc2ccccc2)CC1	9.8	11.8
COc1cc2c3c(c1)C(SC(C)=N)(C1C(=O)CC(C)(C)CC1=O)C(=O)N3C(C)(C)C=C2C (stereo not drawn)	1.7	21.6
Cc1cccc(C)c1NC(=O)c1ccccc1NC(=O)C(C)n1cncn1 (stereo not drawn)	-4.2	-7.8
CCn1c(C2CCN(C(=O)CCc3c[nH]c4ccccc34)CC2)nn(C)c1=O	14.7	9.4
Cc1ccn2c(NC(=O)C3CCCCC3)c(-c3cccc(F)c3)nc2c1	-12.6	-9.5

Screens as filed in PubChem.

The list is partial. The share of hits here may be higher or lower than overall.
